StopGo FLuc = lowers the firefly signal of an FMDV 2A StopGo reporter; 120,000 compounds, 0.23% hits; Potency, µM (top dose mostly 57.5 µM), inactives show at the top dose signal change, negative = less light; HEK cells with a luciferase reporter of 2A StopGo recoding; active = well fitted falling curve with a large enough effect; inconclusive = small, poorly fitted or top-dose-only effect; inactive = no such curve, though single readings can be large or run the other way; also: nearly all actives have a fitted effect of over 60% in size; overnight with compound
2A Renilla = lowers the Renilla signal of an FMDV 2A StopGo reporter | HEK cells with a luciferase reporter of 2A StopGo recoding | Potency, µM (titrated, usually from 57.5 µM), inactives show at the highest dose signal change, negative = less light | 120,000 compounds, 0.32% hits | AID 1745857; active means well fitted falling curve with a large enough effect; inconclusive means small, poorly fitted or top-dose-only effect; inactive means no such curve, though single readings can be large or run the other way; also: nearly all actives have a fitted effect of over 55% in size; overnight with compound
Numbers without * were called inactive; u = inconclusive; [ ] = dose if it differs, or a comment. % is scaled to controls: 0 for no effect and ±100 for the full control effect; potency is read from the fitted curve at half-maximal effect. An excerpt, so the mix of outcomes need not match the whole.

SMILES | StopGo FLuc | 2A Renilla
O=C(CSC12CC3CC(CC(C3)C1)C2)NCCc1ccc(F)cc1 | 0% | 22%
COCCn1c(C)c(C)c(S(=O)(=O)c2ccc(F)cc2)c1NC(=O)C1CCCO1 (stereo not given) | -16% | 0%
O=C(Cn1c(=O)ccc2cc(S(=O)(=O)N3CCCC3)ccc21)NCc1ccc(F)cc1 | u | -27%
Cc1ccc(C2=NN(CC(=O)NCCC(C)C)C(=O)CC2)cc1 | 12% | 2%
CCCN1CCC(C(=O)O)CC1 | 2% | 5%
COC(=O)c1cc(NS(=O)(=O)c2cc(Br)cc3c2N(C(C)=O)CC3)cc(C(=O)OC)c1 | 0% | 223%[activator]
Cc1oc(-c2ccccc2)nc1CC(=O)Nc1ccc(Br)cc1F | 22% | 15%
COc1ccc(C(=O)C(C(=O)C(F)(F)F)C23CC4CC(CC(C4)C2)C3)cc1OC (stereo not given) | 0% | 194%[activator]
CC(=O)c1cccc(NC(=O)CN2CCN(CCc3ccccc3)CC2)c1 | -4% | -13%
c1ccc(-c2noc(-c3ccco3)n2)cc1 | 177%[activator] | -3%
CCNC(=O)NC(=O)COc1ccc2ccc(=O)oc2c1 | 15% | -13%
CCCn1nc(C(=O)N2CCN(c3ncccn3)CC2)c2ccccc2c1=O | 37%[activator] | 40%[activator]
CCc1ccc2c(c1)-c1ccccc1S(=O)(=O)N2CC(=O)Nc1cccc(Cl)c1C | 2% | 97%[activator]
COc1cc(OC)c(NC(=O)CSc2cc(=O)n(C)c3ccc(Cl)cc23)cc1Cl | -7% | -5%
Fc1ccccc1OCc1nc(-c2ccc(-n3cccc3)cc2)no1 | 41%[activator] | -14%
COc1ccccc1-c1nnc(SCC(=O)NC(C)c2ccc3c(c2)CCCC3)o1 (stereo not given) | -12% | -14%
CCCn1c(C)cc(C(=O)CSc2nc3cc(S(N)(=O)=O)ccc3n2CC)c1C | 87%[activator] | 6%
COc1cc(Cl)c(C)cc1NS(=O)(=O)c1c(C)nc2sccn2c1=O | 0% | 126%[activator]
O=C(OCC1CCCCC1)c1nn(-c2ccccc2)c(=O)c2ccccc12 | 16% | 3%
COc1ccc(-n2c(-c3ccc(C)cc3)cc3c2CC(C)(C)CC3=O)c(OC)c1 | -27% | -7%
CCCCOc1ccc(S(=O)(=O)c2ccc(OCCCC)cc2)cc1 | -5% | -8%
O=C(NCc1ccc(Cl)cc1)C(=O)Nc1cccc(Br)c1 | -8% | -10%
CCOc1ccc(Oc2ccc(Cl)cc2NC(=O)Cn2c(=O)c3c(ncn3C)n(C)c2=O)cc1 | -3% | -5%
CCCOC(=O)c1cccc(NC(=O)CSc2nnc3cc(C)c4ccccc4n23)c1 | 4% | -10%
Cc1ccc(Cn2c3ccccc3c3cnn(CC(=O)Nc4cc(Cl)ccc4C)c(=O)c32)cc1 | 6% | 2%
CCOC(=O)c1cnc2c(Cl)cc(Cl)cc2c1Nc1cc(C(=O)O)ccc1C | 5% | -3%
CCOC(=O)c1ccccc1NC(=O)N(Cc1ccc(C)cc1)Cc1cccn1-c1nnc(N2CCCC2=O)s1 | -18% | -14%
Cc1ccc(Nc2nc(C(N)=O)c(NC(=O)CC34CC5CC(CC(C5)C3)C4)s2)cc1 | 0% | -19%
Cc1ccc(S(=O)(=O)c2c(C)nn(-c3ccccc3)c2OC(=O)c2ccccc2F)cc1 | -11% | 30%[activator]
CCCCn1c(N)c(N(CC)C(=O)Cn2c(CC)nc3ccccc32)c(=O)[nH]c1=O | -6% | -9%
O=C(COc1ccc(F)cc1)NCCc1nc2ccccc2[nH]1 | -10% | -5%
CN1CCN(CCCNC(=O)c2cnn(-c3ccccc3)c2-n2cccc2)CC1 | 39%[activator] | -8%
COc1ccc(Nc2nc(-c3ccc([N+](=O)[O-])cc3)nc3ccccc23)cc1 | 11% | -16%
Nc1nc(CN2CCN(C(=O)c3ccc(OC(F)(F)F)cc3)CC2)nc2ccccc12 | 4% | -10%
CCOC(=O)c1c(C)[nH]c(C)c1S(=O)(=O)N1CCC(C(=O)N2CCN(c3ccccc3F)CC2)CC1 | -22% | 28%
S=C(NCCSc1ccc(Cl)cc1)Nc1ccccc1Cl | 22% | 170%[activator]
COc1ccc2c(COC(=O)c3cccc4ccccc34)cc(=O)oc2c1 | 52%[activator] | -4%
Cc1cc(C)c(C)c(SC(C)C(=O)NC2CCCC2)c1C (stereo not given) | -7% | 4%
Cc1ccc2[nH]c(-c3ccccc3)c(C)c2c1 | 0% | 18%
CCOc1ccc(-c2nc(CS(=O)Cc3cccc(OC)c3)cs2)cc1OC (stereo not given) | -6% | 16%[1.06 µM]
O=C(O)c1nnn(-c2ccc(F)cc2)c1C(F)(F)F | -12% | -10%
Cc1ncc(COC(=O)C(C)C)c2cc(C(=O)Nc3ccccc3C(F)(F)F)c(=O)oc12 | -19% | -14%
Cc1cccc(C(=O)NC(C)C(=O)OC(C)C(N)=O)c1 (stereo not given) | 8% | -27%
COC(=O)c1cc2c(cc1NC(=O)c1cnn(-c3ccc(C)cc3)c1-n1cccc1)OCO2 | -21% | -19%
CCOC(=O)c1[nH]c(C)c(CCC(=O)N2CCN(c3cc(C)ccc3C)CC2)c1C | -7% | -14%

The last seven entries of the section above come first, to join the parts:
SMILES | StopGo FLuc | 2A Renilla
Cc1ccc2[nH]c(-c3ccccc3)c(C)c2c1 | 0% | 18%
CCOc1ccc(-c2nc(CS(=O)Cc3cccc(OC)c3)cs2)cc1OC (stereo not given) | -6% | 16%[1.06 µM]
O=C(O)c1nnn(-c2ccc(F)cc2)c1C(F)(F)F | -12% | -10%
Cc1ncc(COC(=O)C(C)C)c2cc(C(=O)Nc3ccccc3C(F)(F)F)c(=O)oc12 | -19% | -14%
Cc1cccc(C(=O)NC(C)C(=O)OC(C)C(N)=O)c1 (stereo not given) | 8% | -27%
COC(=O)c1cc2c(cc1NC(=O)c1cnn(-c3ccc(C)cc3)c1-n1cccc1)OCO2 | -21% | -19%
CCOC(=O)c1[nH]c(C)c(CCC(=O)N2CCN(c3cc(C)ccc3C)CC2)c1C | -7% | -14%
CSc1cccc(NC(=O)N2CCN(c3cc(-c4noc(C)n4)ccc3C)CC2)c1 | 8% | 6%
CN(C(=O)COC(=O)c1n[nH]c2ccccc12)C1CCS(=O)(=O)C1 (stereo not given) | -7% | -15%
C/C(=N/Nc1ccc(S(=O)(=O)Nc2ccccc2)cc1[N+](=O)[O-])c1cccnc1 | -7% | 43%[activator]
COc1ccc(-c2cc(C(=O)N3CCCCCC3)c3ccccc3n2)c(OC)c1 | 10% | 144%[activator]
CCCCCCOc1ccccc1C(N)=O | 17%[11.5 µM] | -20%
Cc1ccc(NC(=O)Cn2cc(C(=O)C3CCCCC3)c3ccccc32)cc1 | 0% | 6%
Cc1ccc2c(c1)Oc1cc(Cl)c(S(=O)(=O)N(C)C)cc1C(=O)N2 | 10% | 11%
O=C(Nc1sc2c(c1C(=O)NCc1ccccc1)CCCC2)c1cc(=O)c2ccccc2o1 | -6% | -6%
CS(=O)(=O)Oc1ccc2c(c1)O/C(=C\c1ccc(-c3ccccc3)cc1)C2=O | u | 5%
Cc1cccc(N2C(=O)CS(=O)(=O)C23C(=O)N(C)c2ccccc23)c1 (stereo not given) | -2% | -3%
CCCN(CCC)CCCNC(=O)c1cc2c(=O)n(C)c3ccccc3c2s1 | 4% | 15%
OCCCCCCCCCCC[n+]1ccccc1 | 21% | 7%
CS(=O)(=O)Cc1ccc(C(=O)Nc2ccc(F)c(F)c2)cc1 | 95%[activator] | 16%
CCOc1cc2c(cc1NC(=O)CC1C=CCC1)OC(C)C2 (stereo not given) | 18% | -10%[1.06 µM]
O=C(Nc1cccc(S(=O)(=O)N2CCCC2)c1)c1cc(=O)c2ccccc2o1 | -22% | 21%
CNC(=O)NC(=O)COc1c(Cl)cc(Cl)c2ccc(C)nc12 | 15% | 2%
NC(=O)c1ccc(OCc2coc(-c3cccc(F)c3)n2)cc1 | 74%[activator] | 7%
CCC(=O)Nc1ccccc1-c1nc2ccccc2n(C(CC)C(=O)Nc2cccc(Cl)c2)c1=O (stereo not given) | -23% | -9%
CC(C)=CC(=O)N(C)C(C)c1cccc([N+](=O)[O-])c1 (stereo not given) | -6% | 1%
CCOC(=O)c1c(C)[nH]c(C(=O)Cn2cnc3ccccc3c2=O)c1C | 96%[activator] | -9%
CCOC(=O)c1c(C)sc(-c2c(-c3ccc(OC)c(F)c3)[nH]c3[nH]c(=O)[nH]c(=O)c23)c1O | -9% | 7%
Cc1ccc(NC(=O)/C(C#N)=C\c2ccc(-c3ccc(Cl)cc3)o2)c(C)c1 | -21% | -4%
O=C(Nc1ccc(F)c(Cl)c1)c1cnc(N2CCCCC2)c2ccccc12 | -22% | -19%
Cc1cc(Br)cc2c(C(=O)NC3CCCCC3)cc(-c3ccccc3)nc12 | 3% | -5%
COc1ccc(CNC(=O)C2CCN(S(=O)(=O)c3ccc(C)cc3)CC2)cc1 | -12% | 5%
CCc1nn(CC(=O)Nc2cc(C)cc(C)c2)c(=O)c2cc3sccc3n12 | 6% | -6%
CN(C(=O)Nc1ccc(Cl)cc1)C(c1ccc(Cl)cc1)c1nccn1C (stereo not given) | 90%[activator] | 24%
COc1cccc(C(=O)Oc2ccc(C(C)=O)cc2)c1 | -2% | 7%
COc1ccc(-c2nnc(SCC(=O)N3CCC(c4ccccc4)=N3)o2)cc1 | 22% | 6%
CCCCN1CCCc2cc(CN(CCCN3CCOCC3)C(=O)Nc3ccc(OCC)cc3)ccc21 | -24% | -11%
CCCOc1ccc(C(CC(=O)c2ccc(C)cc2)S(=O)(=O)c2ccc(C)cc2)cc1 (stereo not given) | 2% | -11%
CC(C)Nc1ccc(-c2nc(-c3ccccn3)no2)cc1[N+](=O)[O-] | -59% | 5%
CN(Cc1nc2scc(-c3ccc(F)cc3)c2c(=O)[nH]1)Cc1cccs1 | 9% | 5%
COc1ccccc1CNC(=O)CSc1ncc(S(=O)(=O)c2ccc(C)c(Cl)c2)c(=O)[nH]1 | -3% | -2%
CCCc1nc2nc(C)cc(Nc3c(C)cc(C)cc3C)n2n1 | 20% | 18%
CCn1cc(C(=O)OC(C)C(=O)NC(=O)NC(C)(C)C)c2ccccc21 (stereo not given) | 2% | 1%
COc1ccc(CCNC(=O)c2ccc(NC(=O)CC3SC(N4CCCC4)=NC3=O)cc2)cc1 (stereo not given) | 14% | 12%
COc1ccc(OCCn2nnc3sc4c(c3c2=O)CCCC4)cc1 | -6% | -7%
CC(=O)N1CCc2cc(Br)cc(S(=O)(=O)CCC(=O)NCCc3ccc(Cl)cc3)c21 | -14% | 22%
CCOc1ccc(-c2nc(CN3CCN(C(=O)NC4CCCCC4)CC3)c(C)o2)cc1 | 53%[activator] | -17%
CCn1c(CC2C(=O)N(C)c3ccccc32)nc2ccccc2c1=O (stereo not given) | -9% | -13%
COc1ccc(-n2ncc(C(=O)N3CCN(Cc4ccccc4)CC3)c2C2CCN(C(=O)OC(C)(C)C)CC2)cc1 | -13% | -5%
COc1ccc(-c2c(C)oc3cc(OCCN4CCN(CCO)CC4)ccc3c2=O)cc1 | -15% | -16%
CCOc1ccc(NC(C)=O)c(N)c1 | 41%[activator] | 21%
CCC(CC)NC(=O)C1CCN(C2=NS(=O)(=O)c3ccccc32)CC1 | -7% | -6%

The list goes on, overlapping the part above by 3 compounds.
SMILES | StopGo FLuc | 2A Renilla
COc1ccc(-c2c(C)oc3cc(OCCN4CCN(CCO)CC4)ccc3c2=O)cc1 | -15% | -16%
CCOc1ccc(NC(C)=O)c(N)c1 | 41%[activator] | 21%
CCC(CC)NC(=O)C1CCN(C2=NS(=O)(=O)c3ccccc32)CC1 | -7% | -6%
CCN(CC)CCCNC(=O)c1cn(CC)c2ccc(S(=O)(=O)N3CCc4ccccc4C3)cc2c1=O | -38% | -9%
CCCCC(=O)Nc1nc(-c2ccc(F)cc2NC(C)=O)cs1 | 10% | 3%
COc1cc(OC)c2cc(C(=O)NC(C)C(=O)Nc3nc(C)cs3)n(C)c2c1 (stereo not given) | 19% | 6%
Fc1ccc(CNC(=S)NCCc2cccc(Cl)c2)cc1 | 41%[activator] | 267%[activator]
COC(=O)c1c(NC(=O)COc2cc(C)c(Cl)c(C)c2)sc2c1CCCC2 | -12% | 6%
Cc1cccc(N2N=C(C(=O)Nc3ccc(C)c(S(=O)(=O)N4CCCCCC4)c3)CCC2=O)c1 | -8% | 5%
COc1ccccc1C1CC(=O)Nc2c(-c3ccccc3)nsc21 (stereo not given) | u | u
CCOC(=O)c1ccc(Nc2nc3ccccc3nc2NS(=O)(=O)c2ccc(OC)cc2)cc1 | 14% | 14%
C/C(=N\NC(=O)Nc1ccccc1)c1ccc(Br)cc1 | 22% | 1%
CCOC(=O)C1C(=O)C=C(c2ccc(C)cc2)CC1c1ccc(Cl)cc1 (stereo not given) | 8% | 15%
Cc1ccc(-c2nnc3c4ccccc4c(-c4ccccc4)nn23)cc1 | 33%[activator] | -4%
CCN1CCN(c2cc(C)c3cc(NC(=O)/C=C/c4cccc(OC)c4OC)ccc3n2)CC1 | 5% | 15%
CCOc1cc(C2c3c(oc4ccc(F)cc4c3=O)C(=O)N2Cc2ccco2)ccc1O (stereo not given) | -7% | -24%
